DUX4 txn inh: blocks DUX4-driven transcriptional activation; 293T-iDUX4 ZSCAN4-Gaussia luciferase reporter, 24 h; hits give low values; activity change, negative = inhibition, % (concentration not given with the values); actives 0.8% (n = 37,000);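 active = -10% or lower and over 25 points stronger than a control reporter; inconclusive = -10% or lower with a smaller gap; inactive = above -10%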;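 also: 0% = median of neutral control wells and -100% = median of positive control wells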
DUX4 txn inh difference: second read-out of DUX4 txn inh, no call of its own (marks repeat the call); Gaussia minus Italica difference, %; measured here: selective DUX4 reporter inhibition;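 worked out from the two reporters; negative = selective loss of the DUX4 reporter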
DUX4 txn inh control: also measured in DUX4 txn inh; calls as there; activity change, negative = inhibition, %; measured here: Italica tet-on control reporter;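 0 = neutral control and -100 = positive control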
Starred values were filed as active, the others as inactive; ? = inconclusive; . = no result given.

item	Compound	DUX4 txn inh	DUX4 txn inh difference	DUX4 txn inh control
1	Cc1ccccc1-c1ccc([C@@H]2[C@H](CO)N3CCCCN(C(=O)CN4CCOCC4)C[C@@H]23)cc1	-2	-1	-1.0
2	COc1ccc(S(=O)(=O)N2C[C@H](O)COC[C@@H]3O[C@H](CC(=O)N[C@@H]4CCN(Cc5ccccc5)C4)CC[C@H]32)cc1	-4	-7	3.7
3	COCCNC(=O)C[C@@H]1CC[C@@H]2[C@@H](COc3ccc(NC(=O)Cc4ccccc4)cc3C(=O)N2C)O1	2	1	0.6
4	CCCC#Cc1ccc([C@H]2[C@@H](CO)N3CCCCN(CC4CCOCC4)C[C@H]23)cc1	3	-12	15
5	CCC(=O)N1[C@H](CO)[C@H](c2ccc(-c3ccc(F)cc3)cc2)C12CN(C(C)=O)C2	10	4	6.2
6	COc1cccc(NC(=O)N2C[C@H](O)COC[C@@H]3O[C@@H](CC(=O)NC4CCCC4)CC[C@H]32)c1	4	-1	5.4
7	COCC(=O)N(C)C[C@@H]1[C@@H](c2ccccc2)[C@H](CO)N1C(=O)NC(C)C	-3	-1	-2.2
8	O=C(C[C@H]1CC[C@H]2[C@@H](COC[C@@H](O)CN2Cc2cc(F)ccc2F)O1)NCc1ccc(Oc2ccccc2)cc1	?	.	.
9	O=C(CC1CC1)N1CC2(C1)[C@H](c1ccccc1)[C@H](CO)N2CC1CCOCC1	1	0	0.5
10	O=C(Nc1ccccc1F)N1CC(=O)N2[C@H](CO)[C@@H](c3ccc(-c4cccnc4)cc3)[C@@H]2C1	2	0	1.3
11	O=C(C[C@@H]1C[C@@H]2c3cc(NC(=O)NC4CCCC4)ccc3O[C@@H]2[C@@H](CO)O1)NCCN1CCCCC1	8	2	5.3
12	O=C(C[C@H]1C[C@H]2c3cc(NC(=O)c4ccc5c(c4)OCO5)ccc3O[C@H]2[C@H](CO)O1)NCc1ccc(Cl)cc1	?	.	.
13	CO[C@H]1CN(C)C(=O)c2cc(NC(=O)Nc3cccc(F)c3)ccc2OC[C@@H](C)N(C(=O)C2CC2)C[C@@H]1C	-2	-3	0.9
14	C[C@H]1CN([C@@H](C)CO)C(=O)c2c(c3ccccc3n2C)-c2ccccc2CO[C@@H]1CN(C)C(=O)Nc1cccc(C(F)(F)F)c1	?	.	.
15	COCC(=O)N1CC2(C1)CN(Cc1cc(F)ccc1F)[C@H](CO)c1c2c2ccc(OC)cc2n1C	5	0	5.5
16	N#C[C@H]1[C@H](c2ccc(-c3cncnc3)cc2)[C@@H](CO)N1C(=O)C1CCC1	3	3	0.8
17	COc1ccccc1-c1ccc([C@H]2[C@H](CO)N(C(=O)C3CC3)C23CN(C(C)=O)C3)cc1	2	1	0.5
18	COc1ccc(C#Cc2ccc3c(c2)[C@H]2[C@H](CCN2S(=O)(=O)C2=NC(C)C=N2)[C@@H](CO)N3C)cc1 (stereo not given in full)	20	15	5.3
19	O=C(C[C@@H]1C=C[C@H](NC(=O)CC2CC2)[C@@H](CO)O1)NCC(F)(F)F	-6	-8	1.9
20	COc1ccc2c3c(n(C)c2c1)[C@H](CO)N(C(=O)CN1CCOCC1)CC31CCN(C(=O)Nc2cccc(F)c2)CC1	12	-4	16
21	CN(C)C(=O)[C@@H]1[C@@H](CO)[C@@H]2Cn3c(ccc(C4=CCCC4)c3=O)[C@@H]2N1C(=O)Cc1cccnc1	16	11	4.9
22	COc1ccc(NC(=O)N2CC[C@@H]3[C@H]2c2cc(Br)ccc2N(C)[C@H]3CO)cc1	16	21	-4.9
23	CN1C(=O)c2cc(NS(C)(=O)=O)ccc2OC[C@@H]2O[C@H](CC(=O)N3CCOCC3)CC[C@@H]21	-2	-1	-0.6
24	C[C@H](CO)N1C[C@H](C)[C@@H](CN(C)C(=O)Nc2ccc(N3CCCCC3)cc2)OCc2cnnn2CCCC1=O	3	1	1.8
25	CN(C)C(=O)C[C@H]1C[C@@H]2c3cc(NS(C)(=O)=O)ccc3O[C@@H]2[C@H](CO)O1	4	-3	6.4
26	CNC[C@H]1Oc2c(NC(=O)c3cnccn3)cccc2C(=O)N([C@H](C)CO)C[C@H]1C	-4	-3	-1.6
27	O=S(=O)(c1ccccc1)N1C[C@@H]2[C@H](c3ccccc31)[C@H](CO)N2Cc1ccccn1	-3	2	-4.1
28	CCc1cnc(N2[C@H](CO)[C@@H](c3ccc(C#CC(C)C)cc3)[C@@H]2C#N)s1	1	-4	5.6
29	CN(C)C(=O)C[C@H]1C=C[C@H](NC(=O)c2ccc(F)cc2)[C@H](CO)O1	-2	-2	-0.3
30	CNC[C@H]1Oc2cc(C#Cc3ccccc3OC)ccc2S(=O)(=O)N([C@@H](C)CO)C[C@@H]1C	-1	1	-1.4

Profiles, looked up by structure:
Entry for CNC[C@H]1Oc2c(NC(=O)c3cnccn3)cccc2C(=O)N([C@H](C)CO)C[C@H]1C = DUX4 txn inh: -4; DUX4 txn inh difference: -3; DUX4 txn inh control: -1.6
Entry for COCC(=O)N(C)C[C@@H]1[C@@H](c2ccccc2)[C@H](CO)N1C(=O)NC(C)C = DUX4 txn inh: -3; DUX4 txn inh difference: -1; DUX4 txn inh control: -2.2

An excerpt of these results, with values under each structure.
Each structure is followed by: DUX4 txn inh, DUX4 txn inh difference, DUX4 txn inh control
#13 CO[C@H]1CN(C)C(=O)c2cc(NC(=O)Nc3cccc(F)c3)ccc2OC[C@@H](C)N(C(=O)C2CC2)C[C@@H]1C
  -2, -3, 0.9
#14 C[C@H]1CN([C@@H](C)CO)C(=O)c2c(c3ccccc3n2C)-c2ccccc2CO[C@@H]1CN(C)C(=O)Nc1cccc(C(F)(F)F)c1
  ?, ., .
#15 COCC(=O)N1CC2(C1)CN(Cc1cc(F)ccc1F)[C@H](CO)c1c2c2ccc(OC)cc2n1C
  5, 0, 5.5
#16 N#C[C@H]1[C@H](c2ccc(-c3cncnc3)cc2)[C@@H](CO)N1C(=O)C1CCC1
  3, 3, 0.8
#17 COc1ccccc1-c1ccc([C@H]2[C@H](CO)N(C(=O)C3CC3)C23CN(C(C)=O)C3)cc1
  2, 1, 0.5
#18 COc1ccc(C#Cc2ccc3c(c2)[C@H]2[C@H](CCN2S(=O)(=O)C2=NC(C)C=N2)[C@@H](CO)N3C)cc1 (stereo not given in full)
  20, 15, 5.3
#19 O=C(C[C@@H]1C=C[C@H](NC(=O)CC2CC2)[C@@H](CO)O1)NCC(F)(F)F
  -6, -8, 1.9
#20 COc1ccc2c3c(n(C)c2c1)[C@H](CO)N(C(=O)CN1CCOCC1)CC31CCN(C(=O)Nc2cccc(F)c2)CC1
  12, -4, 16
#21 CN(C)C(=O)[C@@H]1[C@@H](CO)[C@@H]2Cn3c(ccc(C4=CCCC4)c3=O)[C@@H]2N1C(=O)Cc1cccnc1
  16, 11, 4.9
#22 COc1ccc(NC(=O)N2CC[C@@H]3[C@H]2c2cc(Br)ccc2N(C)[C@H]3CO)cc1
  16, 21, -4.9
#23 CN1C(=O)c2cc(NS(C)(=O)=O)ccc2OC[C@@H]2O[C@H](CC(=O)N3CCOCC3)CC[C@@H]21
  -2, -1, -0.6
#24 C[C@H](CO)N1C[C@H](C)[C@@H](CN(C)C(=O)Nc2ccc(N3CCCCC3)cc2)OCc2cnnn2CCCC1=O
  3, 1, 1.8
#25 CN(C)C(=O)C[C@H]1C[C@@H]2c3cc(NS(C)(=O)=O)ccc3O[C@@H]2[C@H](CO)O1
  4, -3, 6.4
#26 CNC[C@H]1Oc2c(NC(=O)c3cnccn3)cccc2C(=O)N([C@H](C)CO)C[C@H]1C
  -4, -3, -1.6
#27 O=S(=O)(c1ccccc1)N1C[C@@H]2[C@H](c3ccccc31)[C@H](CO)N2Cc1ccccn1
  -3, 2, -4.1
#28 CCc1cnc(N2[C@H](CO)[C@@H](c3ccc(C#CC(C)C)cc3)[C@@H]2C#N)s1
  1, -4, 5.6

Continued.
item	Compound	DUX4 txn inh	DUX4 txn inh difference	DUX4 txn inh control
31	CCCN1[C@@H]2Cn3c(cccc3=O)[C@H]1[C@@H](C(=O)Nc1ccccc1)[C@@H]2CO	0	2	-1.6
32	CC(C)C(=O)Nc1ccc2c(c1)C(=O)N(C)[C@@H]1CC[C@@H](CC(=O)NCC3CC3)O[C@H]1CO2	-5	-5	0.0
33	CO[C@H]1CN(C)C(=O)c2cc(C#N)ccc2OC[C@@H]2O[C@@H](CC[C@H]2OC)CCN(C)C(=O)[C@@H]1C	-2	-2	0.4
34	C[C@@H]1CN([C@H](C)CO)C(=O)CCCn2nncc2CO[C@@H]1CN(C)Cc1cccc(C(F)(F)F)c1	-4	-3	-0.7
35	CNC[C@@H]1OCCCC[C@H](C)Oc2ccc(NC(=O)Nc3ccc(OC)cc3)cc2C(=O)N([C@@H](C)CO)C[C@H]1C	3	-1	4.8
36	C[C@@H]1CCn2cc(nn2)COC[C@H](c2ccccc2)NC1=O	-1	-2	0.8
37	O=C(C[C@@H]1CC[C@@H]2NC[C@H](O)COC[C@H]2O1)NCCc1ccccc1	13	10	3.5
38	CCc1csc(N2[C@H](CO)[C@@H](c3ccc(C4=CCCC4)cc3)[C@@H]2C#N)n1	-2	0	-1.8
39	O=C(C[C@H]1C[C@@H]2c3cc(NC(=O)CC4CC4)ccc3O[C@@H]2[C@H](CO)O1)NCc1cccc(F)c1	-4	-8	3.1
40	CCc1nc(N2[C@H](CO)[C@@H](c3ccccc3-c3ccc(F)cc3)[C@@H]2C#N)sc1C	?	.	.
41	C[C@@H](O)C#Cc1ccc([C@H]2[C@H]3CN(CC4CC4)CCCCN3[C@H]2CO)cc1	21	0	20
42	N#C[C@H]1[C@H](c2ccccc2C2=CCCCC2)[C@@H](CO)N1C(=O)CN1CCOCC1	4	-7	11
43	COc1ccc(S(=O)(=O)Nc2cccc3c2O[C@H](CN(C)S(=O)(=O)c2cn(C)cn2)[C@H](C)CN([C@H](C)CO)C3=O)cc1	-5	-9	3.8
44	C[C@H]1CN([C@@H](C)CO)C(=O)Cc2cc(NC(=O)Nc3ccc(F)cc3)ccc2O[C@H]1CN(C)S(C)(=O)=O	-1	1	-2.2
45	C[C@@H]1CN([C@H](C)CO)C(=O)CCCn2cc(nn2)CO[C@@H]1CN(C)S(=O)(=O)c1ccccc1F	-6	-3	-3.1
46	O=C(C[C@@H]1C[C@@H]2c3cc(NC(=O)c4cccnc4)ccc3O[C@@H]2[C@@H](CO)O1)NCc1ccccn1	-2	-2	0.0
47	N#C[C@@H]1[C@H](c2ccc(-c3ccccc3F)cc2)[C@H](CO)N1C(=O)C1CC1	1	-4	5.8
48	O=C(C[C@@H]1CC[C@@H]2[C@H](COC[C@H](O)CN2S(=O)(=O)c2ccc(F)cc2)O1)N[C@@H]1CCN(Cc2ccccc2)C1	10	0	11

This is a subset; count on the stated rates, not on these rows.
